Screening results (PubChem BioAssay)
ID4 SMM = binders of human ID4 protein; P47928; small molecule microarray, Flag-ID4 binding, fluorescence F/B; calls only; 31,000 tested, 1.2% active;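 active = spot signal over background at p below 0.07 in all four prints; compounds were printed on slides so no solution concentration is given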;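 also: a binder raises fluorescence above local background on the spot; about 2 pmol printed per array spot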
Target sequence (P47928 whole entry, looked up): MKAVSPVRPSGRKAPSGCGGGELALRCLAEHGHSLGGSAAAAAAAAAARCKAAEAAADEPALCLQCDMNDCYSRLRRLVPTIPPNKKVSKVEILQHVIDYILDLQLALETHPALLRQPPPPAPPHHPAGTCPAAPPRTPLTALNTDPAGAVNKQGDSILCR
mut p53 SMM = mutant p53 (human) binding; small molecule microarray binding, anti-GST fluorescence; calls only; 17,000 tested, 0.4% active;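 active = compounds whose four printed spots each glow above background more than chance allows, each with a p-value under 7%; compounds were printed on slides so no solution concentration is given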;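 also: about 2 pmol printed per array spot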
STAT3 binder = binders of human STAT3; calls only; P40763; 17,000 tested, 0.2% active; Small molecule microarray, His-STAT3 binding, anti-His fluorescence; AID 624138;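 active = compounds whose four printed spots each show fluorescence over background unusually high for their array block, chance value under 7%; compounds were printed on slides so no solution concentration is given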;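 also: about 2 pmol printed per array spot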
Target sequence (P40763 whole entry, looked up): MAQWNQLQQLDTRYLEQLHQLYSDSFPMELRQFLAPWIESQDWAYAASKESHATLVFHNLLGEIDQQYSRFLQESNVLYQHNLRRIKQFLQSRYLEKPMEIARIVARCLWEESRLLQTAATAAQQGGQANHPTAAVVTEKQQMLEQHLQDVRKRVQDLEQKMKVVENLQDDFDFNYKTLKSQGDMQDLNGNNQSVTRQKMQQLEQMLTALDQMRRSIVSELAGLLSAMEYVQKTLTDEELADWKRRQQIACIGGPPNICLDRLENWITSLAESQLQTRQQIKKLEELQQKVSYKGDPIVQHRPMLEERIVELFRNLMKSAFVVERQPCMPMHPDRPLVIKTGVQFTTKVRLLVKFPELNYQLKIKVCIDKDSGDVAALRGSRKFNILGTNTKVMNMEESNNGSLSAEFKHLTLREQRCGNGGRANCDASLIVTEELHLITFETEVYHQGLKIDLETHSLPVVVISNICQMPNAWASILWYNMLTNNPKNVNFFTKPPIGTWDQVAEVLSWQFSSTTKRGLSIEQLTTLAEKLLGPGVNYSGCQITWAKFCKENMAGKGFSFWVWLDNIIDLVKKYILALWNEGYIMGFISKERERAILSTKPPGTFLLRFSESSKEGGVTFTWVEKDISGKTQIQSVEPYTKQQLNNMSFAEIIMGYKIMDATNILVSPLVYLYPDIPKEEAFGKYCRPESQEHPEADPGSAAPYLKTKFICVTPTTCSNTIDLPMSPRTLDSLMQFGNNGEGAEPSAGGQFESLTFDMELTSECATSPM
c-Myc SMM = c-Myc (human) binding; AID 624141; P01106; 17,000 tested, 1.5% active; calls only; small molecule microarray, His-c-Myc binding, anti-His fluorescence;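 active = spot fluorescence over background with P-value below 7% in all four replicate spots, showing protein binding; compounds were printed on slides so no solution concentration is given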;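 also: score is binary with 100 for all four spots passing and 0 otherwise; about 2 pmol printed per array spot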
Calls only; i = inactive; x = no result given; + = active, no number. Some of the compounds tested; count on the stated rates, not on these rows.

Start of the listing, in advance, five compounds:
SMILES | ID4 SMM | mut p53 SMM | STAT3 binder | c-Myc SMM
CN1CCN(c2ccccc2NC(=O)COc2ccccc2)CC1 | i | i | i | i
Cc1ccc(C(=O)Nc2ccccc2C(=O)N2CCCC2)cc1S(=O)(=O)N1CCOCC1 | i | i | i | i
CCn1c2ccccc2c2cc(NC(=O)CN3C(=O)c4ccccc4C3=O)ccc21 | i | i | i | i
CCOC(=O)CSc1nc2c(c(=O)n1-c1ccccc1OC)C1(CCCC1)Cc1ccccc1-2 | i | i | i | i
COc1ccc([Si](C)(C)[C@@H]2[C@@H](CCO)O[C@]3(C(=O)N(Cc4ccccc4)c4ccc(N5CCCCC5=O)cc43)[C@H]2C)cc1 | i | i | i | i

The whole of this part, repeating the preview:
SMILES | ID4 SMM | mut p53 SMM | STAT3 binder | c-Myc SMM
CN1CCN(c2ccccc2NC(=O)COc2ccccc2)CC1 | i | i | i | i
Cc1ccc(C(=O)Nc2ccccc2C(=O)N2CCCC2)cc1S(=O)(=O)N1CCOCC1 | i | i | i | i
CCn1c2ccccc2c2cc(NC(=O)CN3C(=O)c4ccccc4C3=O)ccc21 | i | i | i | i
CCOC(=O)CSc1nc2c(c(=O)n1-c1ccccc1OC)C1(CCCC1)Cc1ccccc1-2 | i | i | i | i
COc1ccc([Si](C)(C)[C@@H]2[C@@H](CCO)O[C@]3(C(=O)N(Cc4ccccc4)c4ccc(N5CCCCC5=O)cc43)[C@H]2C)cc1 | i | i | i | i
Cc1nc2cc(NC(=O)NCc3ccco3)ccc2o1 | i | i | i | i
C[C@@H]1CN([C@@H](C)CO)C(=O)c2cc(NC(=O)Cn3cnnn3)ccc2O[C@@H]1CN(C)C(=O)NC1CCCCC1 | i | i | i | i
C[C@@H]1CN([C@H](C)CO)C(=O)c2cc(NC(=O)Cn3cnnn3)ccc2O[C@@H]1CN(C)S(=O)(=O)c1cccs1 | i | i | i | i
Cc1noc(C)c1S(=O)(=O)N(C)C[C@@H]1OCCCC[C@H](C)Oc2ccc(NS(=O)(=O)c3ccc(Cl)cc3)cc2C(=O)N([C@@H](C)CO)C[C@H]1C | x | i | i | i
O=C(C1=C[C@H](c2ccc3c(c2)OCO3)C[C@H](OCc2ccc(CO)cc2)O1)N1CCN(Cc2ccc3c(c2)OCO3)CC1 | i | i | i | i
CC(C)NC(=O)N(C)C[C@H]1Oc2ccc(NC(=O)CCC(F)(F)F)cc2CC(=O)N([C@@H](C)CO)C[C@H]1C | i | i | i | i
C[C@@H]1CN([C@@H](C)CO)C(=O)c2cc(NC(=O)C3CC3)ccc2O[C@@H]1CN(C)Cc1ccc(C(=O)O)cc1 | i | i | i | i
Cc1ccc(C2c3c(oc4ccccc4c3=O)C(=O)N2c2nnc(C)s2)o1 (stereo unspecified) | i | i | i | i
C[C@H](CO)N1C[C@H](C)[C@H](CN(C)C(=O)Nc2cccc3ccccc23)Oc2ccc(NC(=O)Nc3ccc4c(c3)OCO4)cc2CC1=O | i | i | i | i
Cc1noc(C)c1NC(=O)Nc1ccc2c(c1)CC(=O)N([C@H](C)CO)C[C@@H](C)[C@@H](CN(C)C(=O)Nc1cccc3ccccc13)O2 | i | i | i | i
COc1cc(-c2nc3ccccc3s2)cc(Br)c1OCC(=O)O | i | i | i | +
O=C(/C=C/c1ccccc1)OC[C@]12O[C@H]1[C@@H](O)[C@@H]1C=CO[C@@H](O[C@@H]3O[C@H](CO)[C@@H](O)[C@H](O)[C@H]3O)[C@@H]12 | i | i | i | i
COc1ccc(S(=O)(=O)N(C)C[C@H]2Oc3ccc(NC(=O)Cc4ccccc4)cc3CC(=O)N([C@@H](C)CO)C[C@H]2C)cc1 | i | i | i | i
c1cc2c(cc1C1CCCCC1)c1c3n2CCNC3CCC1 (stereo unspecified) | i | i | i | i
O=C(Nc1ccccc1)C1=C[C@H](c2ccc3c(c2)OCO3)C[C@H](OCCCCO)O1 | i | i | i | i
C[C@@H]1CN([C@H](C)CO)C(=O)c2cccc(NS(=O)(=O)c3cn(C)cn3)c2O[C@@H]1CN(C)CC1CC1 | i | i | i | i
C[C@H]1CN([C@@H](C)CO)C(=O)CCCn2cc(nn2)CO[C@H]1CN(C)S(=O)(=O)c1cccs1 | i | i | i | i
CS(=O)(=O)N(CC(=O)Nc1cc(Cl)cc(Cl)c1)c1ccc(Cl)cc1 | i | i | i | i
O=C(O)C1CCCN1C(=O)c1cncc(Br)c1 (stereo unspecified) | i | i | i | i
CC(C)NC(=O)N(C)C[C@@H]1OCCCC[C@@H](C)Oc2ccc(N(C)C)cc2C(=O)N([C@@H](C)CO)C[C@H]1C | i | i | i | i

Carrying on.
SMILES | ID4 SMM | mut p53 SMM | STAT3 binder | c-Myc SMM
C[C@H](CO)N1C[C@H](C)[C@H](CN(C)C(=O)NC2CCCCC2)Oc2ccc(NS(C)(=O)=O)cc2C1=O | i | i | i | i
C[C@H](CO)N1C[C@H](C)[C@@H](CN(C)C(=O)Nc2ccc(F)cc2)Oc2c(NC(=O)c3cnccn3)cccc2C1=O | i | i | i | i
OCCN(Cc1ccccc1)c1ncnc2c1sc1nc(N3CCOCC3)c3c(c12)CCCC3 | i | i | i | i
C[C@H](NC(=O)/C(C#N)=C/c1ccc(O)c(O)c1)c1ccccc1 | i | i | i | i
C[C@H]1CN([C@@H](C)CO)C(=O)c2cccc(NC(=O)Nc3ccccc3)c2O[C@@H]1CN(C)C(=O)Nc1ccc(C(F)(F)F)cc1 | x | i | i | i
CC(C)NC(=O)N(C)C[C@@H]1OCCCC[C@H](C)Oc2ccc(NC(=O)CCC(F)(F)F)cc2C(=O)N([C@@H](C)CO)C[C@@H]1C | i | i | i | i
C=CCOC(=O)C1=C[C@@H](c2ccccc2)[C@H](CCCO)[C@@H](OCC)O1 | i | i | i | i
CC(C)NC(=O)Nc1ccc2c(c1)C(=O)N([C@@H](C)CO)C[C@H](C)[C@@H](CN(C)S(=O)(=O)c1cn(C)cn1)OCCCC[C@H](C)O2 | i | i | i | i
C[C@@H]1CCCCO[C@@H](CN(C)C)[C@H](C)CN([C@@H](C)CO)C(=O)c2cc(NC(=O)Nc3cccc4ccccc34)ccc2O1 | i | i | i | i
O=C1C[C@@](C(=O)NCC(F)(F)F)(c2ccc([N+](=O)[O-])cc2)[C@@H](c2ccc(CO)cc2I)N1C1CCCCC1 | i | i | i | i
Cc1noc(C)c1NC(=O)N(C)C[C@H]1Oc2c(NC(=O)c3nc4ccccc4s3)cccc2C(=O)N([C@@H](C)CO)C[C@@H]1C | i | i | i | i
COC(=O)c1c(NC(=O)CC2Nc3cccc4cccc(c34)NC2=O)sc(C)c1C (stereo unspecified) | i | i | i | +
CC(C)NC(=O)Nc1ccc2c(c1)C(=O)N([C@H](C)CO)C[C@@H](C)[C@@H](CN(C)S(=O)(=O)c1ccc(F)cc1)OCCCC[C@H](C)O2 | x | i | i | i
CNC[C@H]1Oc2ccc(NC(=O)Nc3c(C)noc3C)cc2C(=O)N([C@H](C)CO)C[C@@H]1C | i | i | i | i
Cc1ccc2nsnc2c1NC(=O)COc1ccc(Br)cc1 | i | i | i | i
C[C@H]1CN([C@@H](C)CO)C(=O)c2cccc(NC(=O)Nc3cccc4ccccc34)c2O[C@H]1CN(C)S(=O)(=O)c1cn(C)cn1 | i | i | i | i
CCOC(=O)c1cnc2nc(NCc3ccc(OC)c(OC)c3)[nH]n2c1=O | i | i | i | i
C[C@H]1CN([C@@H](C)CO)C(=O)CCCn2cc(nn2)CO[C@H]1CN(C)C(=O)c1ccc(N2CCN(C)CC2)cc1 | i | i | i | i
C[C@@H]1CCCCO[C@H](CN(C)C(=O)Cc2ccccc2)[C@H](C)CN([C@H](C)CO)C(=O)c2cc(NS(C)(=O)=O)ccc2O1 | i | i | i | i
C[C@H](CO)N1C[C@H](C)[C@@H](CN(C)C(=O)NC2CCCCC2)Oc2c(NC(=O)c3nc4ccccc4s3)cccc2C1=O | i | i | i | i
C[C@@H]1CCCCO[C@@H](CN(C)C(=O)c2ccccc2)[C@H](C)CN([C@@H](C)CO)C(=O)c2cc(NS(=O)(=O)c3ccccc3)ccc2O1 | i | i | i | i
C[C@H](CO)N1C[C@H](C)[C@@H](CN(C)S(=O)(=O)c2cn(C)cn2)Oc2ccc(N(C)C)cc2CC1=O | i | i | i | i
C[C@@H]1CCCCO[C@H](CN(C)C(=O)Nc2ccc3c(c2)OCO3)[C@H](C)CN([C@@H](C)CO)C(=O)c2cc(NC(=O)Nc3cccc4ccccc34)ccc2O1 | x | i | i | i
COc1cc2c(cc1O)C(=O)CC1C(C)(C)C(=O)CCC21C (stereo unspecified) | i | i | i | i
C[C@@H]1CN([C@H](C)CO)C(=O)CCCn2cc(nn2)CO[C@H]1CN(C)Cc1ccc2c(c1)OCCN2C | i | i | i | i

Full records, quoted from the list.
Record of `C[C@H](CO)N1C[C@H](C)[C@@H](CN(C)C(=O)Nc2ccc(F)cc2)Oc2c(NC(=O)c3cnccn3)cccc2C1=O` : ID4 SMM: i; mut p53 SMM: i; STAT3 binder: i; c-Myc SMM: i
Record of `COc1ccc(S(=O)(=O)N(C)C[C@H]2Oc3ccc(NC(=O)Cc4ccccc4)cc3CC(=O)N([C@@H](C)CO)C[C@H]2C)cc1` : ID4 SMM: i; mut p53 SMM: i; STAT3 binder: i; c-Myc SMM: i

(cont.)
SMILES | ID4 SMM | mut p53 SMM | STAT3 binder | c-Myc SMM
Cc1ccc(Cn2ncc3c(N4CCN(CCOc5ccc(C)cc5)CC4)ncnc32)cc1 | i | i | i | i
O=C(O)CCc1ccc(-c2cccs2)n1Cc1ccco1 | i | i | i | i
C[C@H](CO)N1C[C@H](C)[C@@H](CN(C)C)Oc2ccc(NC(=O)CCCN(C)C)cc2CC1=O | i | i | i | i
C[C@@H]1CN([C@@H](C)CO)C(=O)Cc2cc(NS(=O)(=O)c3cccs3)ccc2O[C@@H]1CN(C)Cc1ccccc1 | i | i | i | i
C[C@@H]1CN([C@@H](C)CO)C(=O)Cc2cc(NC(=O)Cc3ccccc3)ccc2O[C@@H]1CN(C)S(=O)(=O)c1cn(C)cn1 | i | i | i | i
O=C(NCc1cccnc1)c1cc(-c2cccc(Cl)c2)nc2ccccc12 | i | i | i | i
COc1ccc(S(=O)(=O)N(C)C[C@H]2Oc3c(NC(=O)c4ccc(-c5nccs5)cc4)cccc3C(=O)N([C@@H](C)CO)C[C@@H]2C)cc1 | x | i | i | i
CC(C)NC(=O)N(C)C[C@H]1OCCCC[C@@H](C)Oc2ccc(NC(=O)Nc3ccc(C(F)(F)F)cc3)cc2C(=O)N([C@H](C)CO)C[C@@H]1C | i | i | i | i
Cc1noc(C)c1S(=O)(=O)Nc1cccc2c1O[C@@H](CN(C)Cc1ccc3c(c1)OCO3)[C@@H](C)CN([C@H](C)CO)C2=O | i | i | i | i
Cc1ccc(C(O)(CO)CO)c(O)c1 | x | i | i | i
COc1cc(O[C@@H]2O[C@H](COC3OCC(O)C(O)C3O)[C@@H](O)[C@H](O)[C@H]2O)cc(OC)c1OC (stereo partly specified) | i | i | i | i
CNC[C@@H]1Oc2c(NC(=O)C3CCOCC3)cccc2C(=O)N([C@@H](C)CO)C[C@H]1C | i | i | i | i
C[C@H]1CN([C@@H](C)CO)C(=O)Cc2cc(NS(C)(=O)=O)ccc2O[C@H]1CN(C)S(=O)(=O)c1cn(C)cn1 | i | i | i | i
Cc1noc(C)c1NC(=O)N(C)C[C@H]1OCCCC[C@@H](C)Oc2ccc(NS(=O)(=O)c3cn(C)cn3)cc2C(=O)N([C@@H](C)CO)C[C@H]1C | i | i | i | i
Cc1noc(C)c1NC(=O)Nc1ccc2c(c1)CC(=O)N([C@@H](C)CO)C[C@@H](C)[C@@H](CN(C)C(=O)NC1CCCCC1)O2 | x | i | i | i
COc1cc(OC)c(C(=O)NCCCN(C)C)cc1OC | i | i | i | i
C[C@@H]1CN([C@H](C)CO)C(=O)Cc2cc(NC(=O)NC3CCCCC3)ccc2O[C@H]1CN(C)C(=O)Nc1cccc2ccccc12 | i | i | i | i
C[C@@H]1CCCCO[C@H](CN(C)C(=O)Nc2ccc3c(c2)OCO3)[C@H](C)CN([C@@H](C)CO)C(=O)c2cc(N(C)C)ccc2O1 | x | i | i | i
O=C(c1ccc(F)cc1)C1CCN(CCCCc2ccccc2)CC1 | i | i | i | i
Cc1cc(NC(=O)CCCN2C(=O)c3cccc4cccc(c34)C2=O)n(-c2ccccc2)n1 | i | i | i | i
C[C@H](CO)N1C[C@H](C)[C@@H](CN(C)C)Oc2ccc(NC(=O)Nc3ccc4c(c3)OCO4)cc2C1=O | i | i | i | i
COCCOC(=O)N1C(=O)[C@@]2(c3ccccc31)[C@H](c1ccccc1OCCO)N1[C@H](c3ccccc3)[C@H](c3ccccc3)OC(=O)[C@H]1[C@@H]2C(=O)N1CCN(c2ncccn2)CC1 | i | i | i | i
C[C@H]1CN([C@@H](C)CO)C(=O)c2cc(NS(C)(=O)=O)ccc2O[C@@H]1CN(C)C(=O)Nc1ccc(F)cc1 | i | i | i | i
CC(C)NC(=O)N(C)C[C@@H]1Oc2c(NC(=O)C3CCOCC3)cccc2C(=O)N([C@H](C)CO)C[C@H]1C | i | i | i | i

Fetched one by one from the list above, 2 records:
SMILES | ID4 SMM | mut p53 SMM | STAT3 binder | c-Myc SMM
Cc1noc(C)c1S(=O)(=O)Nc1cccc2c1O[C@@H](CN(C)Cc1ccc3c(c1)OCO3)[C@@H](C)CN([C@H](C)CO)C2=O | i | i | i | i
Cc1ccc(C(O)(CO)CO)c(O)c1 | x | i | i | i
